Screening data deposited in PubChem BioAssay by ICCB-Longwood Screening Facility, Harvard Medical School.
E coli growth – E. coli growth inhibition | Escherichia coli growth, OD600, 23 h; active compounds read low | OD600 absorbance (test concentration not listed) | 330,000 tested, 0.21% active;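 active means OD600 absorbance below the run mean of sample wells minus 3.6 SD, in any replicate, cut at about 0.56 in these data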;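 further: stock transfer was 300 nL into about 60 µL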
* = called active by the depositor; & = joins results of further samples.

No.	structure	E coli growth
1	COc1cc2c(c(OC)c1OC)-c1c(cc(OC)c(OC)c1OC)C[C@](C)(O)C(C)C2 (stereo partly specified)	0.67
2	COC(=O)NN=Cc1ccc(-c2cc(Cl)cc(Cl)c2)o1	0.67
3	O=C(NN=Cc1cccnc1)c1ccc(NC(=O)c2cccc(Cl)c2)cc1	0.65
4	CSc1ccccc1NC(=S)NN=Cc1cccn1Cc1ccc(F)cc1	0.68
5	COc1ccc(C=NNC2=NS(=O)(=O)c3ccccc32)cc1OC	0.68
6	Cc1nn(-c2ccccc2)c(Cl)c1C=NNC(=O)c1ccccc1F	0.67
7	O=C(NN=Cc1cccs1)c1[nH]ncc1Br	0.71
8	O=C(O)CCC(=NNC(=O)c1ccc(-c2ccccc2)cc1)c1ccccc1	0.68
9	CCC1=C(OC(=O)N(CC)CC)N2C(=O)OC(=NCCOC)[C@]2(Cc2ccccc2)C2C1=CCC1C(=O)NC(=O)C12 (stereo partly specified)	0.72
10	Clc1ccc(N2CCN(N=Cc3cccnc3)CC2)cc1	0.61
11	CCOc1ccc(C=NOCC(=O)Nc2cc(S(=O)(=O)N3CCOCC3)ccc2OC)cc1	0.7
12	COC(=O)c1cccc(C23CC4(C2)C(CN(Cc2ccc(-c5ccccc5)cc2)C4c2ccccc2)C3c2ccc(C(F)(F)F)cc2)c1 (stereo unspecified)	0.71
13	COC(=O)c1nn(-c2ccccc2)c(Sc2ccccc2)c1C=NO	0.7
14	COc1ccc(C=NNC(=O)Cc2ccc(Cl)cc2)cc1OC	0.7
15	NC(=S)NN=Cc1cn(-c2ccccc2)nc1-c1cccnc1	0.7
16	NC(=O)NN=C1c2ccccc2-c2c(C(N)=O)cccc21	0.68
17	COCC1=C(C(=O)OC(C)OC(=O)OC(C)C)N2C(=O)C(NC(=O)C(=NOC)c3csc(N)n3)C2SC1 (stereo unspecified)	0.28*
18	COc1ccc(C=C(C#N)C(=O)C(C)(C)n2cncn2)cc1	0.71
19	CCOc1cccc(-c2c(C(=O)NN=Cc3ccc(C)o3)nnn2-c2nonc2N)c1	0.7
20	O=C(c1cc(NC(=O)C23CC4CC(CC(C4)C2)C3)cc(NC(=O)C23CC4CC(CC(C4)C2)C3)c1)N1CCCCC1	0.73
21	Cc1cc(C=Nn2c(COc3ccccc3C)nc3ccccc3c2=O)c(O)c([N+](=O)[O-])c1	0.66
22	COc1cc(C2CC=C(C(=O)O)C(c3ccccc3)N2S(=O)(=O)c2ccc(C)cc2)cc(OC)c1OC (stereo unspecified)	0.68
23	CC(=NNC(=O)COc1cccc(C)c1)c1ccc2ccccc2c1O	0.68
24	Cc1nn(C)c(Cl)c1C=NOC(=O)c1ccc(F)cc1	0.68
25	CCOC(=O)C1C2COc3ccccc3C2N2C(=O)CN(Cc3ccc(C)cc3)C(=O)[C@@]12C (stereo partly specified)	0.68

Compounds 22 to 25, reprinted for reference:
No.	structure	E coli growth
22	COc1cc(C2CC=C(C(=O)O)C(c3ccccc3)N2S(=O)(=O)c2ccc(C)cc2)cc(OC)c1OC (stereo unspecified)	0.68
23	CC(=NNC(=O)COc1cccc(C)c1)c1ccc2ccccc2c1O	0.68
24	Cc1nn(C)c(Cl)c1C=NOC(=O)c1ccc(F)cc1	0.68
25	CCOC(=O)C1C2COc3ccccc3C2N2C(=O)CN(Cc3ccc(C)cc3)C(=O)[C@@]12C (stereo partly specified)	0.68

Next entries follow.
No.	structure	E coli growth
26	CC(=NNC(=O)c1ccc(C)s1)c1cccc(NC(=O)COc2ccc(Cl)cc2Cl)c1	0.84
27	CC1CN(CCc2ccccc2)C(C)CC1=NO (stereo unspecified)	0.66
28	COc1ccc(C=NS(=O)(=O)c2ccccc2)cc1OC	0.7
29	CCOC(=O)CC1c2cc(F)ccc2S(=O)(=O)N1C(C)C (stereo unspecified)	0.69
30	Nc1nonc1-n1nnc(C(=O)NN=Cc2cccc(Cl)c2)c1-c1ccc2c(c1)OCO2	0.67
31	O=C(NN=Cc1ccccc1C(=O)O)c1ccncc1	0.71
32	C#CCNC(=O)C1=CC(c2ccccc2)C(CCCO)C(OCC)O1 (stereo unspecified)	0.63&0.69
33	Cc1ccc2cc(C=NNC(=O)[C@H](C)NC(=O)OC(C)(C)C)c(Cl)nc2c1	0.68
34	CC(Cc1ccccc1)=NNC(=O)CNC(=O)c1ccccc1	0.75
35	Cc1ccc(C=NNC(=O)COc2ccc(C)cc2[N+](=O)[O-])cc1	0.69
36	O=C(O)c1cccc(NC(=NS(=O)(=O)c2ccccc2)c2ccccc2)c1	0.69
37	CCOC(=O)C=c1sc(=Cc2ccc(C#N)cc2)c(=O)n1CC(=O)NCc1ccco1	0.73
38	CCc1ccc(C=Nn2cnnc2)cc1	0.67
39	O=C(NN=Cc1ccc(-n2ccnc2)cc1)c1cccs1	0.66
40	CCCCC1CNC(=S)N1CCc1cccc2ccccc12 (stereo unspecified)	0.72
41	CCSc1ncc(C=NNc2ccc(Cl)cc2)n1C	0.73
42	CC(=NO)c1ccc(Cl)cc1Cl	0.64
43	Cn1cc(C=NNC(=O)c2ccccc2O)c2ccccc21	0.67
44	CC(C)CC1COCCS(=O)(=O)N1Cc1cccc(C(F)(F)F)c1 (stereo unspecified)	0.66
45	CC(C)NC(=O)CC(=O)NN=Cc1ccc(Br)cc1	0.63
46	CCC1=C(OC(=O)N(CC)CC)N2C(=O)OC(=NCC3CC3)[C@]2(C)C2C1=CCC1C(=O)N(CC(=O)OC)C(=O)C12 (stereo partly specified)	0.71
47	Cc1ccc(C=NNC(=O)C2CC(=O)N(c3ccccc3)C2)s1 (stereo unspecified)	0.7
48	Cc1ccnn1CC(=O)NN=Cc1ccco1	0.69
49	CC(=NNC(=O)Cc1ccccc1)c1cccnc1	0.69
50	CCC1=C(OC(=O)N(CC)CC)N2C(=O)OC(=NCCOC)[C@]2(Cc2ccccc2)C2C1=CCC1C(=O)N(C)C(=O)C12 (stereo partly specified)	0.66

Remaining list, next part.
No.	structure	E coli growth
51	O=C(NN=Cc1ccccn1)c1cc(-c2cccc3ccccc23)n[nH]1	0.72
52	CCOc1cccc(C=NNC(=O)C2CCCC2)c1O	0.63
53	COc1ccccc1/C=C/C=NN1CCN(Cc2ccccc2Cl)CC1	0.64
54	O=C(CCC(=O)Nc1ccc(F)cc1)NN=Cc1cccnc1	0.67
55	CC(C)(C)OC(=O)NC(C(=O)OC(C)(C)C)c1ccc(C(F)(F)F)cc1 (stereo unspecified)	0.62&0.64
56	COc1ccc(NC(=O)N(C)CC2Oc3c(NC(=O)Nc4ccc(C(F)(F)F)cc4)cccc3C(=O)N(C(C)CO)CC2C)cc1 (stereo unspecified)	0.67
57	CC(=NNC(=O)c1ccc(CN(C)S(=O)(=O)c2ccc(C)cc2)cc1)c1ccc(OC(F)F)cc1	0.71
58	O=C(CN1CCN(Cc2ccc(Cl)cc2)CC1)NN=Cc1ccccc1F	0.67
59	S=c1[nH]nc(-c2cccs2)n1N=Cc1cn(-c2ccccc2)nc1-c1ccccc1	0.69
60	O=C(NN=Cc1ccc(Cl)s1)C1COc2ccccc2O1 (stereo unspecified)	0.61
61	COC(=O)C(=NNc1ccccc1)Sc1nnc(-c2ccc(OC)cc2)n1C	0.7
62	COc1cc(C=NNc2ccc(C(=O)O)cc2)cc(OC)c1OC	0.67
63	Cc1ccccc1OCC(=O)NN=C1CCOc2c(C)cccc21	0.81
64	O=C(NN=Cc1ccco1)c1ccc(NC(=O)C2CCCCC2)cc1	0.63
65	CN1C(=O)C2C(C=Cc3ccccc3)N3C(=O)CN(CCO)C(=O)[C@@]3(C)C2C1=O (stereo partly specified)	0.71
66	CC(C)c1ccc(C=NNC(=O)c2ccc(Cn3cccn3)o2)cc1	0.69
67	Cc1nn(C)c(Cl)c1S(=O)(=O)NC(c1ccccc1)[C@]1(C)CC1C(C)C(=O)Nc1ccc2ccccc2c1 (stereo partly specified)	0.73
68	Cc1ccc(-c2c(C(=O)NN=Cc3ccncc3)nnn2-c2nonc2N)cc1	0.7
69	COc1ccc(C=NNC(=O)Cn2cc(C(F)(F)F)ccc2=O)cc1	0.71
70	CC(NC(=O)NCc1ccc(F)cc1)C(=O)O (stereo unspecified)	0.7
71	CCNC(=S)NN=Cc1cn(Cc2ccccc2F)c2ccccc12	0.71
72	C=C(C)C1CC=C(C)C(=NNC(=O)COc2ccc(Cl)cc2)C1 (stereo unspecified)	0.71
73	NC(=NOC(=O)c1cccs1)c1cccc([N+](=O)[O-])c1	0.72
74	CCOc1ccc(C=NNC(=O)C2CC2)c(OCC)c1	0.65
75	COc1ccc(C=NN(CCC(=O)NC(C)(C)C)C2=NS(=O)(=O)c3ccccc32)cc1	0.66

The list goes on:
No.	structure	E coli growth
76	Cc1ccsc1C=Nn1c(C2CCCCC2)n[nH]c1=S	0.67
77	CCC(C)C(C(=O)N1CCN(C(=O)OC(C)(C)C)CC1)n1cc(CCCCNC(=O)OC(C)(C)C)nn1 (stereo unspecified)	0.69
78	CC1(C)OC2CC3C4CC(F)C5=CC(=O)C=CC5(C)C4C(O)CC3(C)[C@]2(C(=O)CO)O1 (stereo partly specified)	0.67
79	CC1(C)Cc2c(cnn2-c2ccccc2)C(=O)C1=NNC(=O)c1ccccc1O	0.69
80	CSc1ccc(C=Nn2c(C)nc3ccccc3c2=O)cc1	0.72
81	Cn1c(=O)c2ncn(CC(=O)NN=C/C=C/c3ccccc3)c2n(C)c1=O	0.62
82	O=C(CSc1nc2ccccc2s1)NN=Cc1cc([N+](=O)[O-])ccc1O	0.68
83	CC(=O)NN=Cc1cc2c(cc1[N+](=O)[O-])OCO2	0.62
84	C=CCn1c(=C(C#N)C(=O)NCC2CCCO2)sc(=Cc2ccccn2)c1=O (stereo unspecified)	0.7
85	CC(=NNC(=O)Cc1cccn1C)c1cccc2ccccc12	0.75
86	O=C(O)c1ccc(NN=C2CCSc3ccc(F)cc32)cc1	0.69
87	CC(=NNC(=O)c1ccccc1NC(=O)c1ccc(Cl)cc1)c1ccncc1	0.72
88	CON=C(Cn1ncc(N2CCCC2)c(Br)c1=O)c1ccc(Cl)cc1	0.72
89	O=C(NC(C(=O)NN=Cc1ccccn1)c1n[nH]c(=O)c2ccccc12)c1ccccc1 (stereo unspecified)	0.69
90	COc1cccc(C=NNC(=O)c2ccc3nc[nH]c3c2)c1	0.62
91	CC1=NNC(=O)C1CC(=O)NN=Cc1ccncc1 (stereo unspecified)	0.67
92	C/C(C=NNC(=O)c1cc(C)oc1C)=C\c1ccccc1	0.71
93	COc1ccc(C=NNC(=O)c2ccc(CN3C(=O)c4cccc5cccc3c45)cc2)cc1O	0.7
94	COc1cccc(C=NNc2snc(SC)c2C#N)c1	0.72
95	Fc1ccc(-c2ccc(C=Nn3cnnc3)o2)cc1Cl	0.65
96	COc1cc(C=NNC(=O)c2cc(C)n(-c3ccc(F)cc3)c2C)cc(OC)c1O	0.72
97	CC(C=Cc1cccs1)=CC(=O)O	0.71
98	COCc1cc(C)nc(OCC(=O)NN=Cc2ccc(OC)c(O)c2)c1C#N	0.67
99	CC(C)(C)c1ccc(OCC(=O)NN=Cc2ccsc2)cc1	0.58
100	CC(=NOC(=O)c1ccc(Cl)cc1Cl)c1oc(C)nc1C	0.68

By substructure, the entries above with bromine
No.	structure	E coli growth
7	O=C(NN=Cc1cccs1)c1[nH]ncc1Br	0.71
45	CC(C)NC(=O)CC(=O)NN=Cc1ccc(Br)cc1	0.63
88	CON=C(Cn1ncc(N2CCCC2)c(Br)c1=O)c1ccc(Cl)cc1	0.72

More compounds follow.
No.	structure	E coli growth
101	COc1ccc(C=NOCc2ccc(Br)cc2)c(OC)c1	0.69
102	Nc1nonc1-n1nnc(C(=O)NN=Cc2cccc(F)c2)c1CN1CCCCCC1	0.7
103	COC(=O)[C@@]12CCCCN1C(c1ccc(-c3ccc(OC)cc3)c(OC)c1)C1C(=O)N(C)C(=O)C12 (stereo partly specified)	0.71
104	O=C(NN=Cc1cccc2ccccc12)c1cc(C2CC2)[nH]n1	0.64
105	COc1cc(C=NNC(=O)c2ccc(COc3cc(C)ccc3C(C)C)cc2)cc(OC)c1O	0.71
106	O=C(Cn1nc2ccccc2n1)NN=Cc1ccc(F)cc1	0.74
107	CCOC(=O)NN=CC=Cc1ccco1	0.71
108	COc1cccc2cc(S(=O)(=O)c3ccc(C)cc3)c(=NNS(=O)(=O)c3ccc(C)cc3)oc12	0.66
109	N#CCCN(C(=O)CON=Cc1cccc([N+](=O)[O-])c1)c1ccccc1	0.66
110	O=C(CNC(=O)c1ccncc1)NN=Cc1ccc(Br)cc1	0.66
111	COc1ccc(CC(=O)NCC(=O)NN=Cc2c[nH]c3ccccc23)cc1	0.66
112	Cc1ccc(C=c2sc3nc(-c4ccccc4Br)nn3c2=O)o1	0.72
113	Cc1n[nH]c(=O)nc1NN=Cc1cccs1	0.72
114	COc1ccc(C(=O)NN=Cc2cc(Br)ccc2O)cc1OC	0.71
115	Cc1ccc(NC(=O)c2ccc(NN=Cc3cccc(O)c3)c([N+](=O)[O-])c2)cc1	0.84
116	O=C(CCc1ccc(O)c(O)c1)NN=Cc1cc2c(cc1[N+](=O)[O-])OCO2	0.69
117	CC1COC(=O)C(Cc2ccc(F)cc2)CCC=CCC(CC(=O)NCCO)C(=O)N1 (stereo unspecified)	0.72&0.72&0.64
118	C[C@]12CCC(O)CC1=CCC1C2CC[C@]2(C)C(=NNC(N)=S)CCC12 (stereo partly specified)	0.67
119	Cc1cc(C)n(CC(=O)NN=Cc2ccco2)n1	0.68
120	CC(C)NC(=O)CC(=O)NN=Cc1ccc(F)cc1	0.67
121	C=C1CCN(C(C)C(=O)NCc2ccc(Cl)cc2)S(=O)(=O)c2ccccc21 (stereo unspecified)	0.63
122	Cc1ccc(C(=O)NN=Cc2cn(Cc3ccccc3)c3ccccc23)cn1	0.68
123	CC(CC(O)C1OC1(C)C)C1=C2CC(O)C3[C@@]4(C)CCC(=O)C(C)(C)C4CC[C@]3(C)[C@@]2(C)CC1 (stereo partly specified)	0.64

A portion of the library; count on the stated rates, not on these rows.
